# Bioassay records deposited in PubChem by National Center for Advancing Translational Sciences (NCATS).
# CtBP-E1A blk: inhibitors of CtBP/E1A interaction; AlphaScreen GST-E1A/His-CtBP binding, 1536-well; hits give low values; control for the full effect not named in the record; activity change, % (no concentration beside the values); 340,000 tested, 0.49% active; AID 651724; in the data active means activity change below about -65%; inconclusive means about -30% to -65%; inactive means above about -30%; further: on the % scale 0 is the no-effect control and ±100 the full control effect; compound concentration not given in the record
#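 AlphaScreen with 125 nM GST-E1A and 125 nM His-CtBP (5X stocks) in Tris pH 8.0, 300 mM NaCl, BSA, Tween 20, TCEP. Compounds preincubated 2 h at 37 deg C, then glutathione donor/nickel acceptor beads added for 1 h at 37 deg C in dark.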
# D2 agonist: human D2 receptor agonism in beta-arrestin assay | 360,000 tested, 0.084% active | activation, % (concentration not given with the values) | DiscoveRx PathHunter D2 beta-arrestin, luminescence, 90 min; 100% = 57 uM dopamine signal | P14416; in the data active = activation above about 40%; inconclusive = about 15% to 40%; inactive = below about 15%; further: compound concentration not given in the record; the text of the record calls up to 30% inactive
#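 Agonist mode: compounds alone added to overnight-plated D2 PathHunter cells for 90 min at 37 C, with 57 uM final dopamine (EC100) defining full response. Beta-arrestin recruitment detected by chemiluminescent reagent, read after 1 h at ambient temperature.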
# Sfp inh: inhibitors of Bacillus subtilis Sfp phosphopantetheinyl transferase; Biochemical Sfp PPTase activity, qHTS; Potency, µM, for the others: max response, negative = inhibition, most hits filed as inhibitors; AID 1490; 310,000 tested, 3.5% active; active means well fitted inhibition curve with a large enough effect; inconclusive means small, poorly fitted or top-dose-only effect, or another doubt; inactive means no such curve, though single readings can be large or run the other way;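 further: the enzyme is Sfp with the accession as filed and its product quenches rhodamine fluorescence; potency means the concentration at half of the fitted maximal effect; 0% = enzyme reaction without inhibitor and -100% = no enzyme wells; top concentration of the series not given in the record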
#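 With Hepes-Na pH 7.6 buffer containing 10 mM MgCl2, Sfp (15 nM) modified BHQ-2-YbbR (12.5 uM) using rhodamine-CoA (5 uM). Two reads 30 minutes apart at 525/598 nm yielded each well's rate.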
# D2 potentiator: positive allosteric modulators of human D2 dopamine receptor; potentiation, % (concentration not given with the values); P14416; DiscoveRx D2 beta-arrestin cells, luminescence, 90 min; 100% = 57 uM dopamine signal; AID 624464; 360,000 tested, 0.23% active; active = potentiation of 50% or more; inconclusive = 30% to 50%; inactive = 30% or less;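 further: compound concentration not given in the record; tested on top of an EC20 dose of dopamine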
#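 D2 cells co-treated with compound plus 50 nM dopamine (EC20) for 90 min at 37 deg C to detect potentiation. Beta-arrestin recruitment was read as enzyme-fragment luminescence after 1 h at ambient temperature. Full response was set by 57 uM dopamine.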
# TRPV1 potentiator: enhances activation of the human vanilloid receptor TRPV1; potentiation, % at 8.33 µM; 320,000 tested, 0.02% active; TRPV1-expressing cells, Fluo-8 calcium influx, capsaicin EC20 potentiation; host cell line not named in the record; control for the full effect not named in the record; active means potentiation above 80%; inconclusive means 30% to 80%; inactive means below 30%; further: 0% is about no effect
#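 TRPV1-expressing cells were cultured overnight at 35.5C and loaded with Fluo-8 calcium dye for 40 to 90 min at room temperature. After a 10 s baseline, compound was added and calcium influx was read kinetically for 3 min (ex 480/em 520 nm).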
# Six1-Eya2 inh: blocks human Six1 binding to Eya2; 360,000 tested, 0.56% active; Q15475+O00167; activity change, % (no concentration beside the values); AlphaScreen GST-Six1/His-Eya2 binding, biochemical; hits give low values; control for the full effect not named in the record; in the data active = activity change below about -65%; inconclusive = about -30% to -65%; inactive = above about -30%; further: on the % scale 0 is the no-effect control and ±100 the full control effect; compound concentration not given in the record
# Target sequence (O00167 whole entry, looked up): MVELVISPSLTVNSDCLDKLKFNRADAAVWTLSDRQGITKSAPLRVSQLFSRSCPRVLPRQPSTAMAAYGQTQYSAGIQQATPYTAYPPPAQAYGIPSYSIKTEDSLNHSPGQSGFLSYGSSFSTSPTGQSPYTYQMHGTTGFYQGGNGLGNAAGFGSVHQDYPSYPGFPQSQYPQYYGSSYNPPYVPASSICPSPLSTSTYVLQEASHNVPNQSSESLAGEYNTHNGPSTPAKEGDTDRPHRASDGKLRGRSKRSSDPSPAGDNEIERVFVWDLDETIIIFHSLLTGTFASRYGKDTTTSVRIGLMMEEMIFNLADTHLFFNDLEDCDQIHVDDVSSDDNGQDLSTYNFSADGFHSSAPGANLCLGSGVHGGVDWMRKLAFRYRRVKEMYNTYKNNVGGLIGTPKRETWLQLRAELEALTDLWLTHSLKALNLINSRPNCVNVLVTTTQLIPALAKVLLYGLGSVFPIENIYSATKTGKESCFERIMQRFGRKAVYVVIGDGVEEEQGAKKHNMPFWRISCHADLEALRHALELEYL
# Target sequence (Q15475 whole entry, looked up): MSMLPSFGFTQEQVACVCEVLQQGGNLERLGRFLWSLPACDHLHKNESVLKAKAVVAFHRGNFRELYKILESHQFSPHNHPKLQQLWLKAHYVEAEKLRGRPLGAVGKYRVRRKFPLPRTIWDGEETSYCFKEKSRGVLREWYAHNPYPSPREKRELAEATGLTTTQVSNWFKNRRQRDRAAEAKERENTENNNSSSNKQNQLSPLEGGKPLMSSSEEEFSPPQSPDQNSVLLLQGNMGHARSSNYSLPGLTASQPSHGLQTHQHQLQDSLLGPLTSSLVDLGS
#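 Homogeneous AlphaScreen proximity assay pairing GST-Six1 with His-tagged Eya2 (added as 5X mix: 250 nM and 500 nM) in 50 mM Tris pH 8.0, 300 mM NaCl, 1 mM TCEP. Glutathione donor and nickel acceptor beads; 1 h, 37 °C, dark.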
# PINK1 expr mod: modulators of PINK1 expression | PINK1 immunofluorescence, high-content cytometry, 24 h | Potency, µM (series often up to 76.6 µM), for the others: at the highest dose activation (PINK1 increase), actives largely listed as activators | 410,000 tested, 0.2% active | AID 624263; active = well fitted activation curve with a large enough effect; inconclusive = small, poorly fitted or top-dose-only effect; inactive = flat fitted curve, though single readings scatter; cell line not stated here;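 further: potency means the concentration at half of the fitted maximal effect; % of control where 0% means no effect; nearly all actives have a fitted effect of over 65% in size; a mitochondrial uncoupler was the plate control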
#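 Measures PINK1 amount and localization on or inside mitochondria by immunofluorescence. Stable cells get compounds at 5 concentrations for 24 hours before fixation and staining; CCCP controls included.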
# * marks the source's active call; other numbers are inactive results; ? = inconclusive; · = no result given; & = joins results of further samples; [ ] = dose if it differs, or a comment.
SMILES,CtBP-E1A blk,D2 agonist,Sfp inh,D2 potentiator,TRPV1 potentiator,Six1-Eya2 inh,PINK1 expr mod
COC(=O)NCC(c1ccco1)N1CCN(c2ccccc2)CC1 (centres undefined),8,-0.2,3%,-5,-23,0,1.4%
Cc1ccc(S(=O)(=O)N2CCCCC2)cc1C(=O)NC1CC(C)(C)NC(C)(C)C1,1,-1.2,·,-4,-8,7,0.6%
Cc1c(Cl)cccc1NC(=O)CCC(=O)N/N=C/c1ccco1,5,-0.7,2%,8,1,4,0.6%
COc1ccc(Cc2nnc(SCC(=O)NC(C)c3ccccc3)o2)cc1 (centres undefined),9,0.1,6%,-7,11,0,-1.5%[38.3 µM]
Cc1nc(C(F)(F)F)nc(Nc2ccc(N=Nc3ccccc3)cc2)c1C#N,36,-0.7,15%,6,9,28,0.0%
CCCCC(CCC(=O)Nc1ccccc1C(=O)OCC)C(=O)O (centres undefined),-3,-4.3,6%,-7,8,0,-0.2%
Cc1c(Cc2ccccc2)[n+](=O)c2ccccc2n1[O-],-1,-3.1,·,-1,·,3,1.2%
CN(c1ccccc1C(=O)NC1CCCCC1)S(=O)(=O)c1ccccc1,4,-0.6,13%,-5,1,0,0.4%
O=C1C=CC[C@H](/C=C/C[C@@H](O)C[C@H](O)CCc2ccccc2)O1,-6,-4.2,·,-12,·,2,-0.1%
Cc1[nH]c(C)c(S(=O)(=O)NCc2ccccc2Cl)c1C(=O)N1CCCC1,4,1.8,1%,-9,22,3,0.2%
O=C(Nc1ccncc1)c1cc(-c2ccccn2)nc2ccc(Br)cc12,12,1.2,0%,-4,-26,6,4.7%
COc1ccc(Cl)cc1NC(=O)C(C)N1CCc2ccccc21 (centres undefined),2,-6.9,3%,-3,7,?,5.0%
Cc1ccc(C(=O)CC2(O)C(=O)N(C)c3ccc(Br)cc32)c(C)c1 (centres undefined),1,-4.0,-3%,-4,22,-5,7.2%
CC1CN(S(=O)(=O)c2cccc(C(=O)NNC(=O)C(C)Oc3ccccc3F)c2)CC(C)O1 (centres undefined),5,6.9,·,-5,-6,-7,0.0%
Oc1ccc(CNC2CCCCC2)cc1,-2,-1.9,19%,-5,-9,16,1.2%
Cc1ccc(C)c(NC(=O)Cn2nnc(C(=O)NCc3ccco3)c2N)c1,·,10,-15%,1,7,4,?
C/C(CC(=O)Nc1cccnc1)=N/NC(=O)COc1ccc(Cl)cc1Br,3,-6.1,2%,-24,7,-18,2.6%
COC(=O)C(Cc1cnc(Cl)s1)(C(=O)OC)c1ccc([N+](=O)[O-])cc1,-6,-4.1,3%,16,-3,-7,-1.6%
CCOc1ccc(N2CC(C(=O)NC3=NCCS3)CC2=O)cc1 (centres undefined),-2,-1.6,10%,-12,3,3,0.7%
CCC(C)NC(=O)CN(C1CCCCC1)S(C)(=O)=O (centres undefined),0,-0.1,?,-2,7,1,-3.2%
CCN(CC(=O)Nc1c(F)cccc1F)C(=O)Cc1ccc(S(=O)(=O)N2CCOCC2)s1,5,-9.7,·,-19,2,-1,3.6%
Cc1ccc2nc(-c3ccc(O)cc3)c(Nc3ccc4c(c3)OCCO4)n2c1,-28,9.5,13%,5,·,0,0.0%&2.6%
CC(C)[C@H](NC(=O)OCc1ccccc1)C(=O)N[C@@H](Cc1c[nH]c2ccccc12)C(=O)O,-5,-0.7,·,-8,-26,-2,1.4%
Cc1ccc(NC(=O)CN(C)C(=O)c2ccc(NS(=O)(=O)c3ccc4[nH]c(=O)[nH]c4c3)cc2)cc1,-20,-3.4,·,-5,10,3,-0.2%
O=C(NCCCn1ccnc1)c1ccco1,-2,0.3,1%,4,-7,1,-0.2%
Cc1cc2ccccn2c1C(=O)c1nc(NCc2ccccc2)ncc1Cl,·,-0.3,-6%,-3,0,-28,-0.5%&-0.1%
Cc1ccnn1CC(=O)N/N=C/c1ccc([N+](=O)[O-])s1,-8,-2.5,-1%,-5,14,-8,1.1%
COc1ccc(NC(=O)NNS(=O)(=O)c2cc(C)ccc2C)cc1OC,11,-1.3,6%,-12,20,-12,-1.1%
CCCS(=O)(=O)NC(=O)C1(C)CCCN(C(=O)c2ccccc2)C1 (centres undefined),10,-2.2,·,-5,·,6,0.6%
Cn1c(-c2ccc3c(c2)OCO3)cnc1NC(=O)CCC(=O)NCCc1ccccc1,-5,0.6,-3%,5,-6,-6,3.4%
COc1ccc(NC(=O)C2CCCN(S(=O)(=O)c3ccc4c(c3)oc(=O)n4C)C2)c(OC)c1 (centres undefined),-3,-30,-1%,-11,0,0,0.4%&4.3%
CCCCN(CC)C(=O)/C=C/c1cccc([N+](=O)[O-])c1,0,-2.4,1%,-6,-8,-4,-1.2%
Clc1ccc(N2COC3c4cccc5cccc(c45)C32)cc1 (centres undefined),3,-1.4,14%,-2,-3,1,4.1%
O=C(CSc1nc(-c2ccccc2)c(-c2ccccc2)o1)N1CCOCC1,-7,-2.8,-15%,-18,·,10,-0.7%
CCOC(=O)Cc1csc(NC(=O)c2ccncc2)n1,19,-1.9,8%,-10,-11,17,-2.7%
Nc1nc(C23CC4CC(CC(C4)C2)C3)cs1,10,1.1,12%,0,7,-5,·
Cc1cc(C)c(C(O)c2ncc(-c3ccccc3Cl)[nH]2)c(C)c1 (centres undefined),-12,-4.2,·,-13,·,-7,3.0%
Cc1ccc(S(=O)(=O)N(CC(=O)N2CCCC2)C2CCCCC2)cc1,7,-0.6,12%,-6,-2,3,-1.4%[38.3 µM]
CCc1cccc(C)c1NC(=O)C1CCN(c2nn3c(=O)cc(C)nc3s2)CC1,?,2.8,-3%,-10,-8,?,-1.4%&1.8%
Cc1ccc(-c2ccc(CCC(=O)O)n2-c2cccc(C(=O)O)c2)cc1,-1,4.3,-20%,-5,-11,0,-3.1%
Cc1ccc(CN(C(=O)c2csnn2)C(C(=O)NC2CCCC2)c2ccc(C)o2)cc1 (centres undefined),-2,-4.3,3%,-14,-25,-4,-0.7%
COC(=O)CC(C(=O)Nc1cc(C(=O)OC)cc(C(=O)OC)c1)N1CCN(C)CC1 (centres undefined),-2,0.0,·,-8,·,1,-1.5%[38.3 µM]
S=c1[nH]c(-c2ccccc2)cn1/N=C/c1ccccc1Br,22,-2.2,-2%,-47,0,-8,1.9%
O=C(NNS(=O)(=O)Cc1ccccc1)c1ccc([N+](=O)[O-])cc1,-15,-3.0,?,-8,-7,-1,0.4%
CC(C)C(NC(=O)c1ccccc1F)C(=O)NCCCn1ccnc1 (centres undefined),3,-3.2,·,-1,·,-5,1.3%
COc1ccc(/C=C(/CC(=O)Nc2ccccc2)c2nc3ccccc3s2)cc1,-1,-2.1,9%,-6,-7,-9,3.9%
CCC(c1nnnn1C(C)(C)C)N(Cc1cccs1)Cc1cc2cc(C)c(C)cc2n2nnnc12 (centres undefined),-6,-8.8,·,11,·,10,1.2%
O=C(Nc1cccc(Cl)c1)NC1CCCCC1,5,-1.7,5%,-16,-12,7,2.1%
CCCCOc1ccc(C2CC(=O)NC2=O)cc1 (centres undefined),0,-0.9,-3%,-12,-6,-1,-1.0%[38.3 µM]
CCOc1ccccc1NC(=O)CSc1nnnn1C1CCCC1,0,-1.5,10%,-4,-5,6,1.4%
CC[C@H](NC(=O)/C=C/[C@H]1O[C@@H](n2cc(C)c(=O)[nH]c2=O)C[C@@H]1O)c1ccccc1,1,-0.7,·,2,·,0,3.6%
C=Cn1cc[n+](CC(=O)c2cccs2)c1,·,-0.4,6%,4,4,7,-0.2%
O=C(Cn1cc(COc2cc(F)cc(F)c2)nn1)c1ccc(O)cc1,1,-1.1,·,-5,·,-1,-0.6%
CCNC(=O)C1(C)CCN(C(=O)c2ccc(F)c(Cl)c2)C1 (centres undefined),3,-2.0,·,0,·,-3,-0.2%
COc1cc2c(cc1OC)C(C(=O)N1CCN(c3ccccc3)CC1)C(c1cccs1)N(C)C2=O (centres undefined),-18,-4.8,9%,-6,2,-9,3.0%
O=C(O)c1ccccc1C(=O)Nc1ccccc1,-2,-3.8,3%,-5,9,1,11%[38.3 µM]
O=C(Cc1cccc2ccccc12)Nc1cc(Cl)ccc1C(=O)O,-2,-3.4,9%,0,6,3,0.2%
Cc1cccc(NC(=S)N(C)C2(c3ccccc3Cl)CCCCC2=O)c1 (centres undefined),2,-1.5,3%,-2,?,-4,2.3%[38.3 µM]
COc1ccc(-c2c(=O)n(OCc3nc4ccccc4[nH]3)c3ccccc3[n+]2[O-])cc1,1,-2.1,-23%,0,-8,-7,2.6%
COc1cc2c(cc1OC)CN(C(=O)CSc1ccc(F)cc1)CC2,·,-0.9,·,6,-7,3,1.7%

# In the list so far, these have an aryl thioether with sulfur outside any ring.
SMILES,CtBP-E1A blk,D2 agonist,Sfp inh,D2 potentiator,TRPV1 potentiator,Six1-Eya2 inh,PINK1 expr mod
COc1ccc(Cc2nnc(SCC(=O)NC(C)c3ccccc3)o2)cc1 (centres undefined),9,0.1,6%,-7,11,0,-1.5%[38.3 µM]
O=C(CSc1nc(-c2ccccc2)c(-c2ccccc2)o1)N1CCOCC1,-7,-2.8,-15%,-18,·,10,-0.7%
CCOc1ccccc1NC(=O)CSc1nnnn1C1CCCC1,0,-1.5,10%,-4,-5,6,1.4%
COc1cc2c(cc1OC)CN(C(=O)CSc1ccc(F)cc1)CC2,·,-0.9,·,6,-7,3,1.7%

# Later entries:
SMILES,CtBP-E1A blk,D2 agonist,Sfp inh,D2 potentiator,TRPV1 potentiator,Six1-Eya2 inh,PINK1 expr mod
NC(=O)Cn1c(=O)n(-c2ccccc2)c(=O)c2oc3ccccc3c21,6,-2.6,2%,9,17,2,2.7%
O=C1C2C3CCC(O3)C2C(=O)N1c1nccs1 (centres undefined),7,-8.3,·,-6,·,-1,11%
Cc1cc(C)c(S(=O)(=O)Nc2cccc3cccnc23)c(C)c1,·,·,9%,·,13,·,0.2%
COc1cc(CN2CCC(n3nccc3NC(=O)c3ccc4c(c3)OCO4)CC2)ccc1O,3,-3.0,12%,-6,-1,-8,0.4%
CC(/C=N/NC(=S)Nc1cccc(S(=O)(=O)N(C)C)c1)c1ccccc1 (centres undefined),3,-6.7,89µM*,-8,-2,-6,-0.3%
CCOC(=O)C1(CCOc2ccccc2)CCN(Cc2ccc3c(c2)OCCO3)CC1,-1,-1.6,-5%,-9,1,-14,15%
